MT1-MMP reporter – MT1-MMP gene expression reporter suppression – cell-based, luciferase reporter, luminescence (AID 618) | MT1-MMP promoter luciferase reporter cells, luminescence | calls from a first round at 10 µM; hits with a dose series show EC50 in µM | hit rate 0.62% among 87,000;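 active means over half of the reporter light lost at 10 µM or EC50 under 50 µM; inactive means the rest and hits that failed the dose series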;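 further: actives suppress MT1-MMP promoter-driven transcription so potencies describe inhibitors; HT1080 fibrosarcoma cells; overnight exposure; toxic or luciferase-blocking compounds were not removed from the actives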
Hsc70 – small molecules displacing fluorescent ligand from Hsc70 – biochemical, fluorescence polarization, primary screen (AID 568); Hsc70 fluorescence polarization, probe displacement; higher % means a stronger effect; strong numbers were not always called active; displacement, % at 20 µM, or IC50 in µM where a hit was titrated; 83,000 tested, under 10 active;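 active means displacement above 50% without optical interference and an IC50 on retest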;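 further: ATPase domain with a fluorescein-tagged ATP probe; 0% = vehicle and 100% = excess ADP; read after one hour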
WNV protease inh – WNV NS2B-NS3 proteinase inhibition. hit rate 0.18% among 65,000. z-score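 (tested at a level between 10 and 100 µM)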. P06935. WNV NS2B-NS3 protease, fluorogenic substrate Ex360/Em465; hits give low values;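 active means z-score at -3 or under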;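 further: score is relative to mean and spread of the compound wells of a plate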
Target sequence (P06935 1371-1501 limits assumed): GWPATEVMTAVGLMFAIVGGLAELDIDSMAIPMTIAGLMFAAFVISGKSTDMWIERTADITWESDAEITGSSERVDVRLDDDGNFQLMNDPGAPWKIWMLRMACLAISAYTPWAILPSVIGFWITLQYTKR
Target sequence (P06935 1502-1679 limits assumed): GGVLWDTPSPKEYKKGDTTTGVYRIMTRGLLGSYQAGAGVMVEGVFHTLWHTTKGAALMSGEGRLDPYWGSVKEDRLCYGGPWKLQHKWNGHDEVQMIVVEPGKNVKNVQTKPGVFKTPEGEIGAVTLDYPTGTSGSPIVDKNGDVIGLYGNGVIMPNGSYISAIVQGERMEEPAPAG
Starred values were filed as active, the others as inactive; i = inactive; . = not tested or not shown.

compound	MT1-MMP reporter	Hsc70	WNV protease inh
Fc1ccc(CN2CCCCCCC2)cc1F	i	2.7%	-0.24
Cc1ccc(S(=O)(=O)NCC(=O)NC2CCCCCC2)cc1	i	4.6%	-0.47
CCn1cc(/C=C(/C#N)S(=O)(=O)c2ccccc2)cn1	i	-7.2%	0.73
COCON1C(=O)CN(C(C)=O)C1c1ccc(Cl)cc1Cl (stereo unspecified)	i	8.9%	0.59
Cc1ccc(N/C(CSC(N)=O)=N/S(=O)(=O)c2ccccc2)cc1	i	-2.2%	.
CC(C)(C)c1csc(NC(=O)CSc2nc3ccccc3c(=O)[nH]2)n1	i	2.7%	-0.91
Cc1cccc(CCNS(=O)(=O)c2ccc(S(=O)(=O)N3CCC(C)CC3)cc2)c1	i	-6.6%	.
CC(C)Cn1cnc2c1c(=O)n(CC(=O)Nc1ccc3c(c1)OCO3)c(=O)n2Cc1ccccc1	i	-11.5%	1.31
Cc1nn2c(-c3ccccc3)c(-c3ccccc3)nc2[nH]c1=O	i	2.1%	-0.39
COc1cccc(NC(=O)Cn2cc3c(n2)CCCCC3)c1	i	-3.8%	0.2
CS(=O)(=O)N1CCN(C(=O)C(Sc2ccccc2)c2ccccc2)CC1 (stereo unspecified)	i	-4.0%	1.07
CC(c1ccco1)N(C(=O)COc1ccc(Cl)cc1Cl)c1ccccn1 (stereo unspecified)	i	13.0%	-0.31
Cc1cc2c3c(c1)C1(C(=O)N3C(C)(C)CC2C)C(C#N)=C(N)Oc2n[nH]c(C)c21 (stereo unspecified)	i	-4.0%	-0.67
Cn1c(CN2CCC(C(N)=O)CC2)c(C#N)c2ccccc21	i	4.7%	.
COc1ccc(NC(=O)NS(=O)(=O)c2ccc(C)cc2)c(OC)c1	i	-4.1%	0.49
Cc1c(C(=O)Nc2ccc(F)c(F)c2)oc2ccc(S(=O)(=O)N3CCCCC3)cc12	i	3.5%	.
O=C(CSc1ccc(Cl)cc1)N1CCOCC1	i	3.0%	-1.47
COC(=O)Cc1c(C)nc2nc(-c3cccnc3)[nH]n2c1=O	i	-1.7%	0.42
O=C(Cn1cccc1)Nc1ccc(F)cc1F	i	4.9%	-0.6
Cc1ccc(C(=O)Cn2c(NCCO)nc3ccccc32)cc1	i	-1.6%	1.65

The last 3 records of the section above are carried over, then new ones follow.
compound	MT1-MMP reporter	Hsc70	WNV protease inh
COC(=O)Cc1c(C)nc2nc(-c3cccnc3)[nH]n2c1=O	i	-1.7%	0.42
O=C(Cn1cccc1)Nc1ccc(F)cc1F	i	4.9%	-0.6
Cc1ccc(C(=O)Cn2c(NCCO)nc3ccccc32)cc1	i	-1.6%	1.65
Cc1c(C(=O)NCC2CCCO2)oc2ccc3c(c12)C(=O)CC(C)(C)O3 (stereo unspecified)	12.5µM*	2.2%	-1.18
O=C1c2cccc3cccc(c23)C(=O)N1c1ccc2ncccc2c1	i	0.3%	.
Cc1ccc(Nc2nc(C(=O)N3CCC(C(=O)NCCN4CCOCC4)CC3)cs2)cc1	i	2.9%	0.58
COC(=O)c1c(NC(=O)C2CC=CCC2C(=O)O)sc(C)c1C (stereo unspecified)	i	0.0%	.
CC1CN(S(=O)(=O)N(C)C)CCN1S(=O)(=O)N(C)C (stereo unspecified)	i	-0.7%	.
CC(=O)c1cccc(NC(=O)COc2ccccc2)c1	i	3.3%	-0.14
CCCCNC(=O)CSc1nccn1Cc1ccccc1	i	-4.4%	-0.27
CC1CC(C(F)F)n2nc(C(=O)Nc3sc4c(c3C#N)CCC(C(C)(C)C)C4)nc2N1 (stereo unspecified)	i	1.7%	.
CCOC(=O)COc1ncn(-c2ccccc2)n1	i	4.0%	.
CCOC(=O)C1CCCN(CCC(=O)Nc2c(C(=O)OC)[nH]c3cc(OC)ccc23)C1 (stereo unspecified)	i	4.3%	-0.55
Cc1cc(NC(=O)CSc2nnc(-c3cccnc3)n2N)no1	i	1.7%	.
Cc1cc(C)n(-c2nc3ccccc3nc2Nc2ccc3[nH]c(=O)[nH]c3c2)n1	i	-31.9%	-0.33
Cc1cc2c(cc(C(=O)OCC(=O)NCc3cccs3)n2C(C)C)o1	i	-1.1%	0.39
Cc1ccc(OCCn2nc3ccccc3n2)c(C)c1	i	-1.7%	-0.24
COc1ccccc1OCCCn1c(=O)sc2ccccc21	i	2.7%	-1.55
O=C(COC(=O)c1cc(S(=O)(=O)N2CCc3ccccc3C2)ccc1Cl)NCc1ccco1	i	2.5%	.
CCOC(=O)c1cnc(-c2ccccc2)[nH]c1=O	i	3.1%	0.25
c1ccc2c(c1)ccc1nnc(-c3ccc4c(c3)OCO4)n12	i	-2.7%	-0.4
Cc1c(C(Nc2ccccn2)c2ccc(Cl)cc2)c(=O)n(-c2ccccc2)n1C (stereo unspecified)	i	-1.8%	1.15
O=C(O)c1cc2nc(-c3ccc(F)cc3)cc(C(F)(F)F)n2n1	i	-3.7%	-0.17
Cc1cnc(NC(=O)C2CCCC2)s1	i	3.5%	.
CC(=O)Nc1ccc(N2CCN(C(C)=O)CC2)cc1	i	-5.1%	-0.85
Cn1cc(NC(=O)c2cc(NC(=O)c3cc(NC=O)cn3C)cn2C)cc1C(=O)NCCC(=N)N	i	2.0%	-0.95
COc1cc(C2c3c(n[nH]c3C)C(=O)N2c2ccc(C)cc2)ccc1O (stereo unspecified)	i	-9.3%	0.47
COc1ccc(-c2cc(C(=O)OC3CCOC3=O)c3ccccc3n2)cc1OC (stereo unspecified)	i	-10.2%	-0.8
CCOC(=O)c1cc2ccc(OC(=O)c3ccco3)cc2oc1=O	i	7.7%	2.11
Cc1cc(Nc2ccc(Br)cc2F)n2nc(C)nc2n1	i	4.9%	0.42
Cc1ccc(-n2c(C)cc(C(=O)CSc3nncs3)c2C)cc1	i	0.0%	2.09
Cc1cc(C)n(-c2nc(SCC(=O)Nc3nccs3)c3c4c(sc3n2)COC(C)(C)C4)n1	i	-1.4%	-0.61
Cc1nc(N)sc1-c1csc(Nc2ccccn2)n1	i	4.4%	-2.62
O=S(=O)(NCC(c1cccnc1)N1CCN(c2ccc(F)cc2)CC1)c1cccs1 (stereo unspecified)	i	0.1%	-1.01
CCn1c(CSc2nc(C)cc(C)n2)nnc1SCC(=O)Nc1ccccc1	i	-1.7%	0.87
COC(=O)C1=C(N)Oc2cc(C)n(C)c(=O)c2C1c1ccc(Cl)c(Cl)c1 (stereo unspecified)	i	2.7%	-0.88
Cc1cc(C)nc(Nc2nc(=O)c3ccccc3s2)n1	i	-6.7%	-0.85
COc1cc(OC)nc(NC(=O)NS(=O)(=O)c2ccc(OC(F)(F)F)cc2)n1	i	7.5%	0.06
CCOc1ccc2nc(N3CCOCC3)nc(C)c2c1	i	2.3%	0.71
Cc1cnc(NC(=O)CSc2nc3ccccc3c(=O)[nH]2)s1	i	-1.9%	-0.75
O=C(c1ccccc1)[C@H]1[C@H](c2ccccc2)[C@@]2(N=C(c3ccccc3)OC2=O)C2c3ccccc3C=NN21 (stereo partly specified)	i	0.4%	.
CC(C)CCN1C(=O)c2ccc(-c3nc4ccccc4c(=O)o3)cc2C1=O	i	3.4%	.
O=c1oc2ccc3ccccc3c2cc1-c1nc2ccccc2o1	i	23.6%	.
O=C(NCC(c1cccnc1)N1CCOCC1)C1CCCCC1 (stereo unspecified)	i	0.9%	-1.24
CC1Cc2ccccc2N1C(=O)CCNS(=O)(=O)c1ccc2c(c1)CCC(=O)N2 (stereo unspecified)	i	7.5%	-1.9
CCOC(=O)c1ccccc1NCN1C(=O)CSC1=O	i	3.7%	-0.23
COc1ccc2c(Cl)c(-c3nnco3)sc2c1	i	-0.3%	-0.13
COCCNC(=O)COc1ccc(Nc2ccccc2)cc1	i	3.2%	-0.1
O=C(NCc1ccco1)c1ccc(S(=O)(=O)N2CCCc3ccccc32)cc1	i	8.5%	0.19
CCOC(=O)Cc1nnc(NC(=O)c2ccccc2OCC)s1	i	-4.0%	0.21
COC(=O)c1cc(Cl)c(NC(=O)c2ccco2)cc1OC	i	-2.0%	0.11
O=C(O)CCCC(=O)Nc1ccc(Cl)c(Cl)c1	i	2.7%	1.39
CN(CCC#N)C(=O)COC(=O)c1ccc(Cl)c(S(N)(=O)=O)c1	i	-4.8%	-0.02

Additional results
compound	MT1-MMP reporter	Hsc70	WNV protease inh
CCOC(=O)c1cc(-c2cccs2)nc2onc(C)c12	i	-2.4%	-0.44
O=C(NCc1cccnc1)C1CCCN(S(=O)(=O)c2ccccc2)C1 (stereo unspecified)	i	5.1%	1.55
CCOC(=O)c1nc(N)c(=O)n(-c2ccc(C)cc2)n1	i	0.4%	.
Cn1c(=O)c2nc(Cl)n(Cc3ccc(Cl)cc3Cl)c2n(C)c1=O	i	-4.8%	0.62
O=C(CSC1=NCCS1)Nc1ccc(S(=O)(=O)NC2CCCCC2)cc1	i	-7.0%	.
CCOC(=O)c1cccc(NS(=O)(=O)c2ccc(NC(C)=O)cc2)c1	i	2.1%	.
CCn1cc(C(=O)N[C@H](C)c2ccccc2)c(=O)c2cc(F)c(N3CCN(C)CC3)cc21	i	2.7%	.
COc1ccc(Oc2c(-c3ccc(O)cc3O)n[nH]c2C)cc1	i	2.8%	1.04
O=C(NCC1COc2ccccc2O1)c1ccc(Cl)cc1 (stereo unspecified)	i	-0.8%	1.99
CCSc1nc2c(c(=O)[nH]c(=O)n2C)n1C/C=C(/C)Cl	i	-4.8%	-0.65
CN(Cc1cc(=O)[nH]c2ccccc12)C(=O)c1ccccc1	i	-4.1%	-0.9
COc1cc(CNc2ccccc2SC)cc(OC)c1OC	i	2.0%	.
COc1ccc(Cl)cc1S(=O)(=O)n1cnc2ccccc21	i	-2.6%	0.54
CCOC(=O)C1=C(C)Nc2nnnn2C1c1cccnc1 (stereo unspecified)	i	-1.1%	.
CCOC(=O)C(C(=O)OCC)C(=O)c1cc(OC)c(OC)c(OC)c1	i	1.3%	-0.26
Cc1ccc(OCC(=O)Nc2ccc3c(c2)nc2n3CCOC2)cc1	i	2.2%	0.29
COc1ccc(CC(=O)NC(CC(=O)O)c2ccc(OC)cc2)cc1 (stereo unspecified)	i	-5.8%	0.7
O=C(CSc1nnc2scc(-c3ccccc3)n12)c1ccc2c(c1)OCCO2	i	-0.4%	1.64
Cc1cc(NC(=O)CSc2nnc(COc3cccc(C)c3C)n2Cc2ccco2)no1	i	3.2%	-0.13
CCCS(=O)(=O)N1CCCC(C(=O)NCCN2CCOCC2)C1 (stereo unspecified)	i	1.9%	-0.22

Sorted by formula weight (smallest number first): part of the list above
compound	MT1-MMP reporter	Hsc70	WNV protease inh
Cc1nc(N)sc1-c1csc(Nc2ccccn2)n1	i	4.4%	-2.62
O=C(O)c1cc2nc(-c3ccc(F)cc3)cc(C(F)(F)F)n2n1	i	-3.7%	-0.17
CCCS(=O)(=O)N1CCCC(C(=O)NCCN2CCOCC2)C1 (stereo unspecified)	i	1.9%	-0.22
COc1ccc(-c2cc(C(=O)OC3CCOC3=O)c3ccccc3n2)cc1OC (stereo unspecified)	i	-10.2%	-0.8

More records.
compound	MT1-MMP reporter	Hsc70	WNV protease inh
COC(=O)c1c(NC(=O)CCCC(=O)O)sc2c1CCC2	i	-0.4%	.
COc1cccc(N2C(=O)CC(N3CCN(S(=O)(=O)c4ccccc4)CC3)C2=O)c1 (stereo unspecified)	i	1.9%	-0.44
O=S(=O)(NCCCN1CCN(c2ccccc2F)CC1)c1cccc2cccnc12	i	0.1%	0.55
S=c1[nH]nc(C23CC4CC(CC(C4)C2)C3)n1Cc1ccco1	i	5.0%	0.04
CCC(C(=O)NC(C)CCc1ccco1)n1nc(C)n2c(cc3occc32)c1=O (stereo unspecified)	i	-3.0%	0.02
O=C(NCC(=O)N1CCCC1C(=O)O)OC1CCCCC1 (stereo unspecified)	i	5.8%	-0.26
Cc1cc(C)c2c(CN3CCN(Cc4ccc5c(c4)OCO5)CC3)cc(=O)oc2c1	i	-5.5%	-0.35
CCOc1ccc(/C=c2\sc3nc(-c4ccco4)nn3c2=O)cc1OCC	i	-44.2%	-1.62
C=CCNC(=O)C1CCN(S(C)(=O)=O)CC1	i	-7.2%	-1.39
Cc1cccc(NC(=O)c2ccc(S(=O)(=O)N(C)C)cc2)n1	i	-11.4%	-0.87
Cc1cc(=O)cc(C)n1-c1ccccc1N1CCOCC1	i	3.0%	0.17
Cc1ccc(C(=O)O/N=C2\CC3CCC2(C)C3(C)C)cc1 (stereo unspecified)	i	4.6%	.
COc1cccc(N2CCN(C3CC(=O)N(c4cccc(Cl)c4)C3=O)CC2)c1 (stereo unspecified)	i	-3.6%	0.31
COC(=O)c1ccc(CSc2nc(-c3ccco3)cc(C(F)(F)F)n2)o1	i	-12.1%	1.45
Cc1nnc(SCC(=O)N2CCC(Cc3ccccc3)CC2)n(N)c1=O	i	-1.9%	-0.52
CCN(CC)C(=O)CSc1nc2sc(C)c(C)c2c(=O)[nH]1	i	-0.1%	0.31
Cc1cccc(Cl)c1OCCCCn1ccnc1	i	-4.3%	-0.61

Screens (PubChem)

The list is partial; count on the stated rates, not on these rows.
